# FGF22 binding: binders of human FGF22 protein, primary screen, FGF22 synaptogenesis inhibitor project, biophysical, thermal shift, single point; Fibroblast growth factor 22 (Homo sapiens), Q9HCT0; AID 651658, 2012; actives 1.5% (n = 340,000); recombinant FGF22 thermal shift, SYPRO orange fluorescence; percent of sucrose octasulfate shift, DMSO zero; calls only at 9.99 µM;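 active = melting point raised past a set limit in the mean and every replicate; three in four hits are not shown here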
# Target sequence (Q9HCT0 whole entry, looked up): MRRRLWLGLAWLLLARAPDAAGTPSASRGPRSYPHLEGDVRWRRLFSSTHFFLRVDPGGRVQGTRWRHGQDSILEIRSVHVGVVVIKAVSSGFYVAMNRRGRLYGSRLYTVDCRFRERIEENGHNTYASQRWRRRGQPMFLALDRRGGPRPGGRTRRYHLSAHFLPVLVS
# AF4-AF9 inh: inhibitors of AF4 peptide binding to AF9, primary screen, biochemical, AlphaScreen, biotin-AF4 peptide, FLAG-AF9, single point; Protein AF-9 (Homo sapiens), P42568; inhibition, % at 10 µM; actives 0.47% (n = 350,000); AID 651704, 2012;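 active = every replicate reaching a set inhibition limit, whatever the replicate mean, cut at about 25% in these data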;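 also: 0% = plate neutral control median and 100% = total signal loss; the record names both 10 and 1 µM as test concentration; the first replicate is given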
# Target sequence (P42568 whole entry, looked up): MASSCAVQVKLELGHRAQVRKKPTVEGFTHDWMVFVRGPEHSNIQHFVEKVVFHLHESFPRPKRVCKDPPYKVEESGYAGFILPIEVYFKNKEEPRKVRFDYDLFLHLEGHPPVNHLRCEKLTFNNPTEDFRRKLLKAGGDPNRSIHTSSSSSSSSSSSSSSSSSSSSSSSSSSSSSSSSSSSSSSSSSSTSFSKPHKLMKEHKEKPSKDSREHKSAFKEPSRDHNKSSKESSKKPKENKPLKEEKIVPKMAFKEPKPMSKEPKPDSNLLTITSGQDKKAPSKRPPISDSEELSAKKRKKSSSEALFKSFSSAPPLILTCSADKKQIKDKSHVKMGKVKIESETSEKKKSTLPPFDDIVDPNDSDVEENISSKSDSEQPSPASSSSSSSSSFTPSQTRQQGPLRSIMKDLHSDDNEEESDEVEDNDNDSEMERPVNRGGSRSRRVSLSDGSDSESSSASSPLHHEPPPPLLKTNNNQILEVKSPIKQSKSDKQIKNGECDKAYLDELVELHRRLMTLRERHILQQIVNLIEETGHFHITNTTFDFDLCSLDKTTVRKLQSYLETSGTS
# Ecoli rRNA inh: reduced GFP signal of wild-type E. coli, primary screen, bacterial rRNA inhibitor project, GFP/RFP fluorescence, OD600, single point; E. coli WT GFP vs humanized-ribosome RFP mutants, 24 h; stronger effect = lower value; DMSO median 0, no signal -100; GFP signal change (wild-type ribosome), % (test concentration not listed); actives 1.6% (n = 350,000);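 active = significant combined selectivity score with lowered wild-type GFP, culture density cut under 30%, mutant RFP and density less affected; inactive = any of these conditions unmet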; also: one replicate is shown; some compounds called inactive have numbers as strong as hits
# Ecoli rRNA inh OD600: further read-out of Ecoli rRNA inh, marked with its call; OD600 change, %; measured here: OD600 growth;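 optical density of the mix in the first replicate; 0 = DMSO median and -100 = no signal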
# Ecoli rRNA inh RFP: recorded beside Ecoli rRNA inh, whose call it bears; RFP signal change, %; measured here: RFP humanized mutant strains;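 first replicate; 0 = DMSO median and -100 = no signal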
# Active calls of the source: *; i = inactive. An excerpt. The share of hits here may be higher or lower than overall.
1	CSc1ccc(CN2CCC2(C)C(=O)NCc2ccc3c(c2)OCO3)cc1 (centres undefined)
2	CO[C@@H]1CN(C)C(=O)c2ccc(NC(=O)c3ccccc3)cc2OC[C@@H](C)N(C(C)=O)C[C@H]1C
3	COc1cccc(CNC(=O)c2cc3c(c(-c4cccc(-c5ccc(C#N)cc5)c4)n2)[C@@H](CCO)N([S@](=O)C(C)(C)C)C3)c1
4	CCOC1=C2[C@@H](CN(S(=O)(=O)c3ccc(C)cc3)[C@H]2c2ccc(CC)cc2)[C@H]2C(=O)N(C)C(=O)[C@H]2C1
5	CN1C(=O)c2cc(NC(=O)C3CCCCC3)ccc2OC[C@@H]2O[C@H](CC(=O)NCCc3ccncc3)CC[C@@H]21
6	CCCNC(=O)[C@H]1[C@H](CO)[C@H]2Cn3c(ccc(-c4cccc(F)c4)c3=O)[C@@H]1N2C(C)=O

assay / entry	1	2	3	4	5	6
FGF22 binding	i	i	i	i	i	i
AF4-AF9 inh	1.8	-11	0.2	-0.9	-1.3	-2.9
Ecoli rRNA inh	-49	-2	7	3	-1	2
Ecoli rRNA inh OD600	-73	-7	-3	-10	7	7
Ecoli rRNA inh RFP	-11	-0.3	27	0.2	0.3	-1.9

7	CN(C)CC(=O)N[C@H]1C=C[C@@H](CC(=O)NCc2ccccc2F)O[C@H]1CO
8	CCCCNC(=O)C1(C)CCN1C(=O)c1ccc2sccc2c1 (centres undefined)
9	Clc1ccc(C=NNc2ccccn2)c(Cl)c1
10	Cc1ccc(C)c(NC(=O)COC(=O)c2ccc(S(=O)(=O)N3CCCC3)cc2)c1
11	CCNC(=O)[C@H]1[C@H](CO)[C@H]2Cn3c(ccc(-c4cncnc4)c3=O)[C@@H]1N2C(=O)Nc1ccccc1
12	CCCN(C)C[C@@H]1OCCCC[C@H](C)Oc2ccc(NC(=O)Cc3ccccc3)cc2C(=O)N([C@@H](C)CO)C[C@@H]1C

assay / entry	7	8	9	10	11	12
FGF22 binding	i	i	i	i	i	i
AF4-AF9 inh	-2.4	1.1	-3.2	-3.9	-3.3	7.2
Ecoli rRNA inh	-2	1	4	13	3	2
Ecoli rRNA inh OD600	-3	-1	9	5	-7	-9
Ecoli rRNA inh RFP	-0.2	3.8	-5.6	2.1	-1.9	0.9

# Copied from the list.
# `CCNC(=O)[C@H]1[C@H](CO)[C@H]2Cn3c(ccc(-c4cncnc4)c3=O)[C@@H]1N2C(=O)Nc1ccccc1` – Ecoli rRNA inh RFP: -1.9
# `CSc1ccc(CN2CCC2(C)C(=O)NCc2ccc3c(c2)OCO3)cc1` (centres undefined) – Ecoli rRNA inh RFP: -11
# `CCOC1=C2[C@@H](CN(S(=O)(=O)c3ccc(C)cc3)[C@H]2c2ccc(CC)cc2)[C@H]2C(=O)N(C)C(=O)[C@H]2C1` – AF4-AF9 inh: -0.9

# (listing goes on)
13	C[C@H]1CN([C@@H](C)CO)C(=O)c2cc(C#Cc3ccccc3)cnc2O[C@H]1CN(C)C(=O)c1ccccc1F
14	COc1ccc(NC(=O)Nc2ccc3c(c2)C(=O)N([C@H](C)CO)C[C@@H](C)[C@H](CN(C)S(=O)(=O)c2ccc(Cl)cc2)OCCCC[C@H](C)O3)cc1
15	C[C@H](CO)N1C[C@H](C)[C@H](CN(C)C(=O)NC2CCCCC2)Oc2ncc(-c3cc4ccccc4o3)cc2C1=O
16	CCSCC(C)(C)n1[nH]c2ccccc2c1=O
17	O=C(c1ccccc1)N1CC(=O)N2[C@@H](CO)[C@H](c3ccc(C#CC4CC4)cc3)[C@@H]2C1
18	O=C(C[C@H]1C=C[C@@H](NS(=O)(=O)c2ccc(F)cc2)[C@@H](CO)O1)N1CCN(c2ccccc2)CC1

assay / entry	13	14	15	16	17	18
FGF22 binding	i	i	i	i	i	i
AF4-AF9 inh	1.2	0.6	5.8	-1.1	0.6	-1.8
Ecoli rRNA inh	-4	-2	-1	-7	4	3
Ecoli rRNA inh OD600	8	-3	-38	-12	1	-3
Ecoli rRNA inh RFP	8.4	-4.2	24	4.9	-2.4	-3.4

19	CCC(=O)N1[C@@H]2c3ccc(-c4cccnc4)c(=O)n3C[C@H]1[C@H](CO)[C@H]2C(=O)N1CCc2ccccc2C1
20	Cc1ccc(S(=O)(=O)Nc2ccc3c(c2)C(=O)N([C@H](C)CO)C[C@H](C)[C@H](CN(C)CC2CC2)O3)cc1
21	Cc1noc(C)c1S(=O)(=O)Nc1ccc2c(c1)CC(=O)N([C@H](C)CO)C[C@H](C)[C@@H](CN(C)Cc1ccc(-c3ccccc3)cc1)O2
22	CCCNC(=O)N1C[C@@H](C)[C@H](OC)CN(C)C(=O)c2cc(NS(=O)(=O)CC(F)(F)F)ccc2OC[C@@H]1C
23	CN1c2ccc(-c3ccccc3)cc2[C@@H]2[C@@H](CCN2C(=O)CN2CCOCC2)[C@H]1CO
24	C[C@H](CO)N1C[C@H](C)[C@@H](CN(C)Cc2ccc(C(=O)Nc3ccccc3N)cc2)Oc2ccc(NC(=O)C3CCCCC3)cc2CC1=O

assay / entry	19	20	21	22	23	24
FGF22 binding	i	i	i	i	i	i
AF4-AF9 inh	-1.4	0.2	2.1	-0.9	-4.5	-6.4
Ecoli rRNA inh	0	0	-4	4	6	-7
Ecoli rRNA inh OD600	0	1	-10	2	14	-8
Ecoli rRNA inh RFP	0.4	-0.9	6.5	0.3	-1.4	0.9

25	C[C@@H]1CN([C@@H](C)CO)C(=O)c2cc(-c3ccncc3)cnc2O[C@H]1CN(C)C(=O)c1ccncc1
26	COc1cccc(NC(=O)N(C)C[C@H]2Oc3cc(/C=C/c4ccccc4)ccc3S(=O)(=O)N([C@@H](C)CO)C[C@@H]2C)c1
27	C[C@@H]1CN([C@@H](C)CO)C(=O)c2cccc(N(C)C)c2O[C@@H]1CN(C)C(=O)Nc1ccc(F)cc1
28	O=C(NCc1ccco1)c1ccc(OC2CCN(Cc3ccccn3)CC2)cc1
29	CS(=O)(=O)Nc1ccc2c(c1)[C@@H]1C[C@H](CC(=O)NC3CCCCC3)O[C@@H](CO)[C@@H]1O2
30	CN(C)C(=O)c1cccc(-c2ccccc2[C@H]2[C@@H](C#N)N(C(=O)C3CCCCC3)[C@@H]2CO)c1

assay / entry	25	26	27	28	29	30
FGF22 binding	i	i	i	i	i	i
AF4-AF9 inh	-5.8	0.5	-2.5	1.5	-0.1	-1.8
Ecoli rRNA inh	2	-4	0	7	-3	0
Ecoli rRNA inh OD600	9	3	3	7	5	6
Ecoli rRNA inh RFP	-0.1	3.2	-4.4	-1.7	-1.9	2.5

31	Cc1ccc(-c2cnc3c(c2)C(=O)N([C@H](C)CO)C[C@@H](C)[C@@H](CN(C)Cc2ccccc2C(=O)O)O3)cc1
32	CCCC#Cc1cnc2c(c1)C(=O)N([C@@H](C)CO)C[C@H](C)[C@H](CN(C)C(=O)Nc1ccccc1OC)O2
33	O=C(c1cccc(F)c1)N1CC(=O)N2[C@H](C1)[C@@H](c1ccc(-c3ccccc3F)cc1)[C@@H]2CO
34	CO[C@H](CN(C)Cc1ccc2c(c1)OCO2)[C@H](C)CN(C(=O)c1ccccc1)[C@H](C)CO
35	C[C@@H]1CN([C@H](C)CO)C(=O)c2cccc(NC(=O)Nc3ccc(C(F)(F)F)cc3)c2O[C@H]1CN(C)Cc1ccc2c(c1)OCO2
36	Cc1ccccc1CN1[C@@H](C)[C@H](c2ccccc2)Oc2cccc(NCC(C)C)c2S1(=O)=O

assay / entry	31	32	33	34	35	36
FGF22 binding	i	i	i	i	i	i
AF4-AF9 inh	-3.2	-3.6	1.7	-0.1	0.7	-2.1
Ecoli rRNA inh	4	-2	-2	3	-2	11
Ecoli rRNA inh OD600	9	5	-57	21	5	18
Ecoli rRNA inh RFP	-1.6	0.0	19	0.8	1.3	-0.9

37	C[C@H](CO)N1C[C@H](C)[C@@H](CN(C)S(=O)(=O)c2ccc(F)cc2)Oc2cc(C3=CCCC3)ccc2S1(=O)=O
38	COc1ccc2c3c(n(C)c2c1)[C@@H](CO)N(C(=O)CN1CCOCC1)CC31CCN(C(C)=O)CC1
39	COc1ccc(-c2cn(CC[C@H]3CC[C@@H](NC(=O)NC(C)C)[C@H](CO)O3)nn2)cc1
40	Cc1cccc(-c2ccc([C@@H]3[C@@H](CO)N4CCCCN(C(=O)c5ccncc5)C[C@@H]34)cc2)c1
41	CCCNC(=O)N(C)C[C@H]1Oc2cc(C3=CCCCC3)ccc2S(=O)(=O)N([C@@H](C)CO)C[C@H]1C
42	CCS(=O)(=O)N1CCCCN2[C@@H](CO)[C@@H](c3ccc(C#Cc4ccccc4OC)cc3)[C@@H]2C1

assay / entry	37	38	39	40	41	42
FGF22 binding	i	i	i	i	i	i
AF4-AF9 inh	0.9	-1.0	-3.0	-6.1	3.2	6.6
Ecoli rRNA inh	1	2	0	-3	-2	-33
Ecoli rRNA inh OD600	-3	13	-3	-32	-6	-58
Ecoli rRNA inh RFP	-1.3	-4.0	-4.1	0.2	-0.9	23

43	Cn1c(=O)c2cc(NC(=S)NC3CC3)ccc2n1Cc1cccc(C(F)(F)F)c1
44	CCS(=O)(=O)N1CC(=O)N2[C@H](CO)[C@@H](c3ccc(-c4ccc(C)cc4)cc3)[C@@H]2C1
45	CN1CCN(c2ccc(CNC(=O)C3Cc4c(-c5cccc(F)c5)ccnc4O3)cc2)CC1 (centres undefined)
46	CO[C@H]1CN(C)C(=O)c2ccc(NS(=O)(=O)c3ccccc3Cl)cc2OC[C@H](C)NC[C@H]1C
47	O=C(NCCc1ccccc1)[C@@H]1[C@@H](CO)[C@@H]2Cn3c(cccc3=O)[C@@H]2N1Cc1cccnc1
48	C[C@@H]1CN([C@@H](C)CO)C(=O)c2cc(NS(=O)(=O)c3cccs3)ccc2O[C@H]1CN(C)S(C)(=O)=O

assay / entry	43	44	45	46	47	48
FGF22 binding	i	i	i	i	i	i
AF4-AF9 inh	1.0	1.8	-5.2	-0.9	-2.1	-2.1
Ecoli rRNA inh	-2	4	4	2	-1	4
Ecoli rRNA inh OD600	-11	-13	11	2	-2	-11
Ecoli rRNA inh RFP	1.0	1.6	-2.0	-0.5	0.6	-1.9

49	COc1ccc(NC(=O)N(C)C[C@@H]2OCc3ccccc3-c3c(n(C)c4ccccc34)C(=O)N([C@H](C)CO)C[C@H]2C)cc1
50	C[C@H]1CN([C@@H](C)CO)C(=O)c2cccc(NC(=O)Nc3ccc(F)cc3)c2O[C@@H]1CN(C)Cc1ccc(Cl)c(Cl)c1
51	CO[C@H]1CC[C@@H]2CCOc3c(C#N)cccc3C(=O)N(C)C[C@@H](OC)[C@@H](C)C(=O)N(C)C[C@@H]1O2
52	CNC[C@H]1Oc2ccc(NS(=O)(=O)c3ccc(OC)cc3)cc2C(=O)N([C@@H](C)CO)C[C@H]1C
53	CCOC(=O)N(C)C[C@@H]1OCc2cn(nn2)CCCC(=O)N([C@@H](C)CO)C[C@@H]1C
54	COc1ccc(NC(=O)c2ccc(NC(=O)C3COc4ccccc4O3)cc2)c(OC)c1 (centres undefined)

assay / entry	49	50	51	52	53	54
FGF22 binding	i	i	i	i	i	i
AF4-AF9 inh	-1.9	3.9	-1.0	-2.2	-1.1	-1.1
Ecoli rRNA inh	-1	-4	5	-2	4	6
Ecoli rRNA inh OD600	0	-3	13	-2	7	13
Ecoli rRNA inh RFP	1.2	7.8	0.4	0.4	-0.9	-0.4

55	CCNC(=O)C1(C)CCN(C(=O)c2ccc3c(c2)CCO3)C1 (centres undefined)
56	C[C@@H]1CCCCO[C@@H](CN(C)CC2CCCCC2)[C@H](C)CN([C@@H](C)CO)C(=O)c2cc(NS(=O)(=O)c3cccs3)ccc2O1
57	C/C=C/c1ccc2c(c1)O[C@@H](CN(C)Cc1cccc(F)c1)[C@@H](C)CN([C@@H](C)CO)S2(=O)=O
58	CC1(C(=O)NCc2ccccc2Br)CCN1C(=O)Cc1ccc(-c2ccccc2)cc1 (centres undefined)
59	N#Cc1ccc(-c2ccc([C@H]3[C@H]4CN(C(=O)Nc5ccc(F)cc5)CCCCN4[C@H]3CO)cc2)cc1
60	CCNC(=O)C1(C)CCCN(Cc2ccc(Oc3ccccc3)cc2)C1 (centres undefined)

assay / entry	55	56	57	58	59	60
FGF22 binding	i	i	i	i	i	i
AF4-AF9 inh	-4.1	4.1	15	-4.5	-11	1.8
Ecoli rRNA inh	-7	3	-38	-3	4	0
Ecoli rRNA inh OD600	-25	0	-65	-39	-10	4
Ecoli rRNA inh RFP	6.4	3.5	3.2	5.1	1.3	4.5

61	O=C(NC1CCCC1)N[C@@H]1CC[C@@H](CC(=O)N2CCOCC2)O[C@H]1CO
62	C[C@H](NC(=O)[C@H]1[C@H](CO)[C@H]2Cn3c(cccc3=O)[C@H]2N1CC1CCCC1)c1ccccc1
63	COCC(=O)N1[C@H](CO)[C@@H]2c3ccccc3N(C(=O)c3ccncc3)C[C@@H]21
64	COCC(=O)N1C[C@@H](C)[C@@H](OC)CN(C)C(=O)c2cc(NC(=O)c3ccc(OC)cc3)ccc2OC[C@@H]1C

assay / entry	61	62	63	64
FGF22 binding	i	i	i	i
AF4-AF9 inh	1.3	-11	-1.1	1.4
Ecoli rRNA inh	4	6	4	1
Ecoli rRNA inh OD600	5	-2	3	-2
Ecoli rRNA inh RFP	-0.6	-2.0	-1.2	-2.8

# High-throughput results (PubChem BioAssay)
